Ecoli growth – E. coli growth inhibition, primary screen, OD600. Escherichia coli growth, 23 h; stronger effect = lower value. OD600 absorbance (concentration not given with the values). 330,000 compounds, 0.21% hits;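 active means OD600 absorbance below the run mean of sample wells minus 3.6 SD, in any replicate, cut at about 0.56 in these data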;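 further: stock transfer was 300 nL into about 60 µL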
HNF4A DNA FP – change in binding of human HNF4A to DNA, primary screen, biochemical, fluorescence polarization, FITC-DNA; activity change, % at 10 µM; 360,000 compounds, 0.3% hits; 1 h; Hepatocyte nuclear factor 4-alpha (Homo sapiens), P41235; AID 1224865, 2016; in the data active means activity change above about 30%, passing the limit was not always enough;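 further: controls were the assay level and a saturating level of protein; the project sought stronger binding though the title names inhibitors; some compounds called inactive have numbers as strong as hits; positive values seem to mean higher polarization but the record does not say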
Vif A3G – inhibitors of Vif binding to APOBEC3G peptide, primary screen, biochemical, TR-FRET, GST-Vif 1-94, biotin-A3G peptide, dose response retest (AID 1117319); 260,000 compounds, 0.57% hits; Virion infectivity factor (Human immunodeficiency virus type 1 group M subtype B (isolate …; TR-FRET GST-Vif / biotin-A3G peptide binding; higher % means a stronger effect; test concentration not given here; strong numbers were not always called active; one-dose inhibition, %; IC50 in µM for titrated hits;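 active means above the screen mean plus three standard deviations and confirmed in dose response; inconclusive means results disagree or hit not tested in dose response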;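 further: Vif residues 1-94 fused to GST binding biotinylated APOBEC3G peptide 110-148; 0% = full assay without inhibitor and 100% = GST in place of GST-Vif; retest series ran down from 100 µM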
rRNA inh HTS – reduced GFP signal of wild-type E. coli, primary screen, bacterial rRNA inhibitor project, GFP/RFP fluorescence, OD600, single point. 350,000 compounds, 1.6% hits. E. coli WT GFP vs humanized-ribosome RFP mutants, 24 h; stronger effect = lower value; DMSO median 0, no signal -100. GFP signal change (wild-type ribosome), % (no concentration beside the values). AID 720706, 2013;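 active means significant combined selectivity score with lowered wild-type GFP, culture density cut under 30%, mutant RFP and density less affected; inactive means any of these conditions unmet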; further: one replicate is shown; some compounds called inactive have numbers as strong as hits
FGF22 binding – binders of human FGF22 protein, primary screen, FGF22 synaptogenesis inhibitor project, biophysical, thermal shift, single point | Fibroblast growth factor 22 (Homo sapiens), Q9HCT0 | AID 651658, 2012 | calls only at 9.99 µM | recombinant FGF22 thermal shift, SYPRO orange fluorescence; percent of sucrose octasulfate shift, DMSO zero | 340,000 compounds, 1.5% hits;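 active means melting point raised past a set limit in the mean and every replicate; inconclusive means no clear call; three in four hits are not shown here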
Target sequence (Q9HCT0 whole entry, looked up): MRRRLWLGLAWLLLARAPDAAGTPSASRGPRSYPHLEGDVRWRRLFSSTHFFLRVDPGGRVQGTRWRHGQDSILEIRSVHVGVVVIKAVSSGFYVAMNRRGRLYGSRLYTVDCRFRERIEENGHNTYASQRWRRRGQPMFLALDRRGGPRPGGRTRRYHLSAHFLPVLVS
ALR H2O2 inh – inhibitors of human ALR sulfhydryl oxidase, primary screen, biochemical, H2O2 detection, HRP-luminol luminescence, single point; FAD-linked sulfhydryl oxidase ALR (Homo sapiens), P55789; purified ALR, DTT oxidation; inhibition, % (test concentration not listed); 290,000 compounds, 3.8% hits;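 active means mean and each replicate at 75% or more; inconclusive means only one of the two met; inactive means neither met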;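 further: stock transfer was 7.5 nL into about 7.5 µL; 0% = neutral wells and 100% = wells with inactivated enzyme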
Target sequence (P55789 whole entry, looked up): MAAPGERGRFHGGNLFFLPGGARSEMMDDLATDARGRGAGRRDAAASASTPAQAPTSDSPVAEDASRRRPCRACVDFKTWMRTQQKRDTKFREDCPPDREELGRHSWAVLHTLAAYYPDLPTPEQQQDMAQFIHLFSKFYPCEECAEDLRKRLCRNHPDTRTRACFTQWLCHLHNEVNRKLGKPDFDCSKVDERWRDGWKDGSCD
MLL AF4-AF9 inh – inhibitors of AF4 peptide binding to AF9, primary screen, biochemical, AlphaScreen, biotin-AF4 peptide, FLAG-AF9, single point | Protein AF-9 (Homo sapiens), P42568 | inhibition, % at 10 µM | 350,000 compounds, 0.47% hits | AID 651704, 2012;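 active means every replicate reaching a set inhibition limit, whatever the replicate mean, cut at about 25% in these data; inconclusive means mean inhibition reaches that limit but some replicates miss it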;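 further: 0% = plate neutral control median and 100% = total signal loss; the record names both 10 and 1 µM as test concentration; the first replicate is given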
Target sequence (P42568 whole entry, looked up): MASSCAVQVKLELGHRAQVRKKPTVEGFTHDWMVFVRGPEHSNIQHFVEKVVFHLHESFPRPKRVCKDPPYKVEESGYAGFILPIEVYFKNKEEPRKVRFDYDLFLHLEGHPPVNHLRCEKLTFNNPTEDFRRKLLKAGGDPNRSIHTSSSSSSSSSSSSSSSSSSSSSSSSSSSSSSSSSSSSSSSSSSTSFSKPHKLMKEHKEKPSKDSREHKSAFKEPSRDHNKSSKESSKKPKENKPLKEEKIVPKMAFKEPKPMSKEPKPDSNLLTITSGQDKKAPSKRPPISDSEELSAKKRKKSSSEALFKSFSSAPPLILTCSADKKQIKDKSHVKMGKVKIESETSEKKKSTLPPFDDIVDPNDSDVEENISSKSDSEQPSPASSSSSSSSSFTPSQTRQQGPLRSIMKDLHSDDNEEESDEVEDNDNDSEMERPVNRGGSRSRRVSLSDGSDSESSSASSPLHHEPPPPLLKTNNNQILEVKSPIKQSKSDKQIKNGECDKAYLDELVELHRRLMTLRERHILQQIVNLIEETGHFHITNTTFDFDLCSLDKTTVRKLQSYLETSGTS
rRNA inh HTS OD600 – further read-out of rRNA inh HTS, marked with its call; OD600 change, %; measured here: OD600 growth;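 optical density of the mix in the first replicate; 0 = DMSO median and -100 = no signal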
rRNA inh HTS RFP – second read-out of rRNA inh HTS, no call of its own (marks repeat the call); RFP signal change, %; measured here: RFP humanized mutant strains;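 first replicate; 0 = DMSO median and -100 = no signal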
Numbers without * were called inactive; i = inactive; ? = inconclusive; . = not tested or not shown. A portion of the library. The share of hits here may be higher or lower than overall.

SMILES | Ecoli growth | HNF4A DNA FP | Vif A3G | rRNA inh HTS | rRNA inh HTS OD600 | rRNA inh HTS RFP | FGF22 binding | ALR H2O2 inh | MLL AF4-AF9 inh
CC(CCc1ccccc1)NC(=O)COC(=O)c1ccc(NC(N)=O)cc1 (stereo not drawn) | 0.67 | 7.0 | -17% | -3 | -1 | 0.5 | i | -4 | -2.0
COc1ccc(NC(=O)Nc2cccs2)cc1OC | 0.65 | 1.7 | 35µM* | 2 | 7 | 0.1 | i | -10 | -7.4
COc1cccc(Nc2nnc(SCn3nnc4ccccc4c3=O)s2)c1 | 0.73 | 1.6 | 3% | . | . | . | . | -3 | .
O=C(OCc1nnc(-c2ccccc2)o1)C1CC(=O)N(CCc2ccccc2)C1 (stereo not drawn) | 0.59 | -1.5 | -12% | 11 | 7 | 1.9 | i | -5 | 2.5
COCCNC(=O)c1onc(CSc2cccc(OC)c2)c1C(=O)NCCOC | 0.7 | 0.8 | . | 3 | 3 | -12 | i | -1 | -3.6
CCCNC(=O)C1(C)CCCN(C(=O)COCc2ccccc2)C1 (stereo not drawn) | . | -4.0 | . | 4 | 7 | 0.2 | i | . | -2.6
CC(C)Cc1nnc(NC(=O)c2cc(-c3ccncc3)nc3ccccc23)s1 | 0.69 | 3.5 | 3% | -2 | -7 | 1.9 | i | 20 | 7.2
CC(CCc1ccccc1)NC(=O)C(=O)N1CCOCC1 (stereo not drawn) | 0.71 | 7.9 | 9% | 26 | 11 | -1.3 | i | 6 | -1.0
CCc1ccc(NC(=O)CNC(=O)Cn2ccc3ccccc3c2=O)cc1 | 0.63 | -0.3 | 0% | . | . | . | i | 1 | 1.0
N#Cc1ccc(OCC(=O)n2cc(C(=O)c3cc(Cl)cc(Cl)c3O)cn2)cc1 | 0.64 | . | 6% | . | . | . | . | 25 | .
O=C(c1cc2c(ccc3ccccc32)oc1=O)N1CCCC1 | 0.66 | 0.1 | 10% | . | . | . | . | -6 | .
O=C(CCC(=O)N/N=C/c1ccc(Br)s1)NCc1ccccc1 | . | 3.1 | . | . | . | . | i | -2 | 0.2
Cc1nc2cc3ccccc3cc2n1C | 0.64 | -0.8 | 1% | . | . | . | . | -49 | .
Cc1ccc2[nH]c(C(F)(F)F)cc(=O)c2c1 | 0.62 | -5.1 | 7% | -20 | -20 | -3.4 | i | 18 | 3.9
CCOC(=O)C1(Cc2cccc(OC)c2)CCN(C2CCOCC2)CC1 | 0.72 | 0.0 | . | 15 | 9 | 1.8 | i | 7 | -0.6

Overlap with the part before: 2 compounds, then new ones.
SMILES | Ecoli growth | HNF4A DNA FP | Vif A3G | rRNA inh HTS | rRNA inh HTS OD600 | rRNA inh HTS RFP | FGF22 binding | ALR H2O2 inh | MLL AF4-AF9 inh
Cc1ccc2[nH]c(C(F)(F)F)cc(=O)c2c1 | 0.62 | -5.1 | 7% | -20 | -20 | -3.4 | i | 18 | 3.9
CCOC(=O)C1(Cc2cccc(OC)c2)CCN(C2CCOCC2)CC1 | 0.72 | 0.0 | . | 15 | 9 | 1.8 | i | 7 | -0.6
O=C(NC1CCCC1)C(c1ccco1)N1CCC(O)(c2ccc(Cl)cc2)CC1 (stereo not drawn) | . | 1.8 | . | -8 | -7 | 7.2 | i | . | .
CCC(=O)N1CCc2cc(S(=O)(=O)NC(C(=O)NC(C)c3ccccc3)C(C)C)ccc21 (stereo not drawn) | 0.72 | -2.7 | -8% | . | . | . | . | -1 | .
CCC(NC(=O)c1ccc2nc(Cc3ccc(OC)cc3)oc2c1)c1ccncc1 (stereo not drawn) | 0.72 | -0.8 | . | -3 | -2 | 6.5 | i | -2 | -0.2
CC1CCN(C(=O)c2ccc(S(=O)(=O)Cc3cc(F)ccc3F)c([N+](=O)[O-])c2)CC1 | 0.64 | 3.8 | . | . | . | . | . | -11 | .
Cn1c(=O)n(CC(=O)N2CCN(c3nnc(-c4ccccc4)c4ccccc34)CC2)c2ccccc21 | 0.71 | 0.7 | -5% | . | . | . | . | 1 | .
CC(C)OC(=O)c1cccnc1N1CCN(c2ccc(F)cc2)CC1 | 0.67 | 3.9 | -4% | . | . | . | . | 18 | .
Nc1nnc(SCC(=O)Nc2cc(C(F)(F)F)ccc2N2CCOCC2)s1 | 0.72 | 1.5 | 2% | . | . | . | . | . | .
CN1C(=O)C(C)(C)N(C(=O)c2cccc([N+](=O)[O-])c2)c2ccccc21 | 0.72 | 4.3 | -3% | -9 | 2 | -6.2 | i | -11 | -0.1
COC(=O)c1ccccc1NC(=O)CSc1nnnn1C | 0.7 | 2.4 | 0% | . | . | . | . | -2 | .
CCOC(=O)C1CCN(C(=O)CCc2c(C)nc3cc(-c4ccccc4)nn3c2C)CC1 | 0.76 | 1.2 | -11% | -7 | -3 | -3.1 | i | 2 | 0.5
CC1CCCN(C(=O)c2ccc3c(=O)n(C4CCCC4)c(=S)[nH]c3c2)C1 (stereo not drawn) | 0.69 | -1.6 | 26% | 15 | 4 | -0.3 | i | . | -4.0
COc1ccc(C(=O)OCC(=O)N2CCCCCC2)cc1S(=O)(=O)N1CCOCC1 | 0.66 | 6.4 | -1% | 4 | 8 | -2.0 | i | -5 | -15
Cc1oc2c(c(C)cc3oc(=O)c(CC(=O)NCCCO)c(C)c32)c1C | 0.66 | -0.6 | -11% | -1 | -1 | 8.8 | i | 1 | -0.3
O=c1c2ccccc2cnn1-c1ccc(Cl)nn1 | 0.7 | 4.1 | . | 9 | 1 | 2.9 | i | -4 | 0.2
COc1ccccc1NCc1ccc([N+](=O)[O-])s1 | 0.71 | 2.7 | 32% | . | . | . | . | . | .

Rewritten as tab-separated lines: 3 of the compounds above
SMILES	Ecoli growth	HNF4A DNA FP	Vif A3G	rRNA inh HTS	rRNA inh HTS OD600	rRNA inh HTS RFP	FGF22 binding	ALR H2O2 inh	MLL AF4-AF9 inh
CC1CCN(C(=O)c2ccc(S(=O)(=O)Cc3cc(F)ccc3F)c([N+](=O)[O-])c2)CC1	0.64	3.8	.	.	.	.	.	-11	.
Cn1c(=O)n(CC(=O)N2CCN(c3nnc(-c4ccccc4)c4ccccc34)CC2)c2ccccc21	0.71	0.7	-5%	.	.	.	.	1	.
CCC(NC(=O)c1ccc2nc(Cc3ccc(OC)cc3)oc2c1)c1ccncc1 (stereo not drawn)	0.72	-0.8	.	-3	-2	6.5	i	-2	-0.2

More results follow:
SMILES | Ecoli growth | HNF4A DNA FP | Vif A3G | rRNA inh HTS | rRNA inh HTS OD600 | rRNA inh HTS RFP | FGF22 binding | ALR H2O2 inh | MLL AF4-AF9 inh
C[C@H](NCCc1ccc(O)cc1)[C@H](O)c1ccc(O)cc1 | . | 0.4 | . | . | . | . | i | 15 | -0.7
CN(C)CC(=O)Nc1ccc2c(c1)[C@H]1C[C@H](CC(=O)NCCc3ccccc3)O[C@@H](CO)[C@H]1O2 | . | . | . | 0 | 6 | 0.7 | i | . | 0.8
O=C(NCCSc1ccc(Cl)cc1)c1ccco1 | 0.7 | 3.0 | 31% | . | . | . | . | 4 | .
COC(=O)c1ccc(OC(=O)CCN2C(=O)C3C4c5ccccc5C(c5ccccc54)C3C2=O)cc1 (stereo not drawn) | 0.71 | -2.8 | . | 9 | 13 | -1.1 | i | . | -0.7
O=C(c1ccccn1)N1C[C@@H]2[C@H](c3ccccc31)[C@H](CO)N2C(=O)C1CCCC1 | . | . | . | 2 | 7 | 0.6 | i | . | -1.8
CC(C)Cc1nnc(NC(=O)c2ccc3c(c2)OCCO3)s1 | 0.65 | -1.6 | 3% | . | . | . | i | -5 | -2.0
Oc1cccc(N2CCN(c3cccc(O)c3)CC2)c1 | . | . | . | -5 | -7 | -0.1 | i | . | 2.9
CCCNC(=O)N1CC2(C1)[C@@H](c1ccccc1)[C@@H](CO)N2C(=O)c1ccncc1 | . | . | . | 2 | 9 | -3.7 | i | . | -1.9
NC(=O)C1CCN(c2oc(-c3cccs3)nc2S(=O)(=O)c2ccc(Cl)cc2)CC1 | 0.7 | -1.8 | . | -1 | 10 | -0.1 | i | 5 | -1.0
Cc1c(NC(=O)NC2CCCCC2)cccc1[N+](=O)[O-] | 0.62 | 0.6 | ? | 10 | 8 | 5.3 | . | 0 | -2.1
N#Cc1c(SCc2ccccc2)sc(C(=O)c2ccccc2)c1N | 0.79 | 5.4 | -10% | . | . | . | . | 21 | .
Cc1ccc(S(=O)(=O)Nc2ccc3c(c2)C(=O)N([C@H](C)CO)C[C@H](C)[C@H](CN(C)C(=O)NC2CCCCC2)O3)cc1 | . | . | . | 0 | 8 | 1.7 | i | . | -0.4
O=[N+]([O-])c1ccc2c(c1)c1ccccc1n2CCO | 0.68 | 3.2 | . | -21 | -25 | -3.4 | i | . | -2.8
O=C(CN1CCCCC1)Nc1ccc(Br)cc1[N+](=O)[O-] | 0.68 | 2.6 | -4% | -14 | -13 | -4.7 | i | -9 | 6.5
O=C(Oc1ccccc1-c1csnn1)c1cccs1 | 0.66 | 2.6 | 4% | -14 | -10 | 0.3 | i | 99* | -0.5
Cc1ccc(C(=O)Nc2ccc(N3CCOCC3)nc2N2CCOCC2)cc1 | 0.69 | -3.0 | -1% | 13 | 2 | -0.7 | i | -21 | -7.8
O=C(N/N=C/C(Br)=C/c1ccccc1)NC1CCCCC1 | . | -3.5 | 11% | -51 | -79 | -14 | . | -11 | 16
COc1cccc(NC(=O)CSc2nc(=O)n(CCN(C)C)c3c2CCCC3)c1 | 0.63 | -4.5 | -4% | 5 | 3 | -2.2 | . | 97* | 0.1
CC(C)Oc1ccc(C(CC(=O)O)NC(=O)Cc2ccccc2)cc1 (stereo not drawn) | 0.67 | 0.1 | -6% | 16 | 24 | -0.3 | i | 12 | 0.6
CCOc1ccc(S(=O)(=O)Nc2ccc(C(=O)N3CCC3)cc2)cc1 | 0.68 | 0.4 | -2% | 3 | 8 | -2.5 | i | -3 | 1.4
COc1ccccc1/C=C/C=N/N1CCN(Cc2ccccc2)CC1 | . | -1.4 | 16% | . | . | . | . | 8 | .
COc1ccc(Nc2c3c(c(C#N)c4nc5ccccc5n24)CCC3)cc1 | 0.77 | -0.7 | 4% | . | . | . | . | 7 | .
CCc1nc2c(OCCc3cccc(OC)c3)cccn2c1N(C)C(=O)c1ccc(C)cc1 | . | 4.2 | . | 3 | 6 | -0.3 | i | . | 4.5
O=C(C[C@@H]1CC[C@H](NC(=O)c2ccc3c(c2)OCO3)[C@H](CO)O1)NC1Cc2ccccc2C1 | . | . | . | -2 | -5 | -1.8 | i | . | -1.3
c1ccc(OCc2nnc3n2CCCCC3)cc1 | 0.71 | -3.2 | 4% | 3 | -1 | -6.5 | i | -2 | -3.2
O=C(NC1CCCCC1)C(c1ccccc1F)N(Cc1ccco1)C(=O)Cn1nnc2ccccc21 (stereo not drawn) | 0.76 | -0.7 | 0% | . | . | . | . | -4 | .
CSCCC(NC(=O)COc1ccccc1)C(=O)N(C)Cc1cccc(F)c1 (stereo not drawn) | 0.71 | 5.2 | -16% | -10 | -11 | 0.2 | i | -1 | 1.7
